High-throughput results (PubChem)
YjeE inh: qHTS Assay for Inhibitors of YjeE; tRNA threonylcarbamoyladenosine biosynthesis protein TsaE (Escherichia coli (strain …; purified YjeE, fluorescence polarisation of a bound ADP probe; Potency, µM; 0.05% of 71,000 active; active = well fitted falling curve; inconclusive = weaker or top-dose-only fall, or a rising curve; inactive = flat or poorly fitted curve;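 note: top concentration of the series not given in the record; excess ADP was the control for the full effect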
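Purified YjeE (10 uM) with BODIPY Texas Red-labeled ADP probe (2 uM); compounds pin-transferred, 15 min at room temperature. Binding inhibition read as decreased fluorescence polarization; ADP titration as control.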
PK Bst: Pyruvate Kinase; partly purified Bacillus stearothermophilus pyruvate kinase, luminescence ATP production; ribose 5-phosphate activator present at AC10; Potency, µM; 1.2% of 51,000 active; in the data active means potency below about 11 µM; inconclusive means mostly about 12 µM to 25 µM; inactive means weaker than that;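 the screen sought inhibitors and activators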;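 note: potency is the fitted concentration of half-maximal effect; scaled between full activation by ribose 5 phosphate and full inhibition by luteolin; about four in five hits inhibit and the cells do not say which; series up to 57 µM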
* marks the source's active call; other numbers are inactive results; i = inactive; ? = inconclusive; . = not tested or not shown. A portion of the library; count on the stated rates, not on these rows.

Start of the data: the first 2 compounds as a preview:
compound	YjeE inh	PK Bst
CS(=O)(=O)Nc1ccc(C(=O)NCCC2=CCCCC2)cc1	i	>57
COc1ccc(-c2sccc2C(C)C(=O)O)cc1 (centres undefined)	i	>57

The list itself (from the top)
compound	YjeE inh	PK Bst
CS(=O)(=O)Nc1ccc(C(=O)NCCC2=CCCCC2)cc1	i	>57
COc1ccc(-c2sccc2C(C)C(=O)O)cc1 (centres undefined)	i	>57
CCOC(=O)C1=C(c2ccccc2)NC(=O)NC1c1ccc(OCC#N)c(OC)c1 (centres undefined)	i	>57
CC1(C)Cc2ccccc2C(=NCCCC(=O)O)N1	i	>57
CCOC(=O)C1CCCN(c2cc(C)nc3cc(-c4ccc(F)cc4)nn23)C1 (centres undefined)	i	.
CC1CCN(c2c(NCc3ccc(C(=O)NCc4cccnc4)cc3)c(=O)c2=O)CC1	i	.
CCn1nnc(C(=O)O)c1C(=O)O	.	>26
Cc1cc(NC(=O)c2cc(-c3cccs3)nc3ccccc23)no1	i	.
CCCCOC(=O)n1c(=O)oc2cc(S(=O)(=O)N3CCCCC3)ccc21	i	>57
COc1ccc(S(=O)(=O)n2c(CCN3CCOCC3)nc3ccccc32)cc1	i	>57

A draw from above in order of count of non-hydrogen atoms, lowest first.
compound	YjeE inh	PK Bst
Cc1cc(NC(=O)c2cc(-c3cccs3)nc3ccccc23)no1	i	.
CCCCOC(=O)n1c(=O)oc2cc(S(=O)(=O)N3CCCCC3)ccc21	i	>57
CCOC(=O)C1CCCN(c2cc(C)nc3cc(-c4ccc(F)cc4)nn23)C1 (centres undefined)	i	.

The results go on.
compound	YjeE inh	PK Bst
COc1cc2c(cc1OC)/C(=C/C(=O)N1CCOCC1)NC(C)(C)C2	i	>57
COc1cc(OC)c(NS(=O)(=O)c2coc(C(N)=O)c2)cc1Cl	i	.
O=C(NCc1ccco1)c1ccccc1Br	i	>57
CCNc1ncc2nc(CCc3ccccc3)c(=O)n(-c3ccc(OC)cc3)c2n1	i	.
O=c1c2c3nc4ccccc4nc3n(/N=C/c3cccs3)c2ncn1-c1ccccc1	i	>57
O=[N+]([O-])c1cccc2c(Br)[nH]nc12	i	.
C=CCNC(=O)CN1CCC(O)(c2ccccc2)CC1	i	>57
CCC(=O)N1CCc2cc(S(=O)(=O)NC(C(=O)N3CCc4ccccc4C3)C(C)C)ccc21 (centres undefined)	i	>57
COc1ccc(Cn2nnnc2C(c2cccs2)N2CCN(c3ccccc3)CC2)cc1 (centres undefined)	i	>57
CC(NC(=O)Cn1cnnn1)C12CC3CC(CC(C3)C1)C2 (centres undefined)	i	>57
Cc1ccccc1-c1nc2cc(N)ccc2o1	i	?
CCN(CC)CCCN1C(=O)C(O)=C(C(=O)c2cc3ccccc3o2)C1c1ccccn1 (centres undefined)	i	>57
O=C(NCSc1ccncn1)c1ccccc1	i	>57
Cc1cccc(NC(=O)NCCN2C(=O)C3C4C=CC(C4)C3C2=O)c1 (centres undefined)	i	.
COc1ccc(CCNC(=O)c2cc(-c3cccs3)on2)cc1OC	i	>57
CN1CCN(CCCCOc2ccc(F)cc2)CC1	.	>26
Cc1cccc(OCCOCCSc2ncccn2)c1	i	.
N#CCCN1CCN(C(CNS(=O)(=O)c2ccc(Cl)cc2)c2ccccc2)CC1 (centres undefined)	i	.
CC(C)=CC(=O)Nc1ccc2c(c1)OCO2	i	i
O=C(COc1ccc(F)cc1Br)NCc1ccccn1	i	.

Complete entries, looked up by structure.
`O=C(NCSc1ccncn1)c1ccccc1` is listed with YjeE inh: i; PK Bst: >57
`CN1CCN(CCCCOc2ccc(F)cc2)CC1` is listed with YjeE inh: .; PK Bst: >26
`Cc1ccccc1-c1nc2cc(N)ccc2o1` is listed with YjeE inh: i; PK Bst: ?

Further entries follow.
compound	YjeE inh	PK Bst
CCCCCCCC/C=C\CCCCCCCC(=O)NCCO	i	.
O=C(c1ccco1)N1CCN(C(=O)C2Cc3ccccc3CN2S(=O)(=O)c2ccc(F)cc2)CC1 (centres undefined)	i	>57
O=C(CN1C(=O)c2cccc3cccc1c23)N1CCc2ccccc2C1	i	>57
O=C(COC(=O)c1cccnc1Nc1ccccc1F)NCc1ccc2c(c1)OCO2	i	>57
COCCCN1C(=O)C(O)=C(C(=O)c2ccco2)C1c1ccc(Br)cc1 (centres undefined)	.	>26
Cc1cc(C)nc(-n2nc(C)cc2NC(=O)COC(=O)CCC(=O)c2cccs2)n1	i	>57
Cc1ccc(O)c(NC(=O)c2cccc(NC(=O)c3ccco3)c2)c1	i	>57
Cc1nc2ccc(S(=O)(=O)NCC(=O)NCCN3CCCCCC3)cc2s1	i	>57
C#CCOC(=O)NC(/C=C/CCCC)c1ccccc1 (centres undefined)	i	.
COC(=O)N1CCC[C@@]2(CCN(C(=O)Nc3ccccc3)C2)C1	i	.
CC(=O)Nc1ccc(S(=O)(=O)CCC#N)cc1	i	>57
CCCc1cc(COC)c(C#N)c(=O)[nH]1	i	.
CN(C)CCN1C(=O)CC[C@]2(C)C1=CC[C@@H]1[C@@H]2CC[C@]2(C)[C@H]1CC[C@]2(C)O	i	.
O=C(NCCCN1CCOCC1)c1cc(-c2cccs2)on1	i	>57
Cc1ccc(Cn2ccc(NC(=O)c3cc(-c4ccco4)on3)n2)cc1	i	>57
Nc1nc(CSc2nc3ccccc3[nH]2)nc(N2CCOCC2)n1	i	>57
Cc1cccc(N2CCN(S(=O)(=O)c3ccc4c(c3)c(=O)n(C)c(=O)n4C)CC2C)c1 (centres undefined)	i	>57
CCn1c(C)csc1=NC(=O)c1ccccc1O	i	i
C#CC(C)(CC)NC(=O)c1cc(OC)c(OC)c(OC)c1 (centres undefined)	i	>57
N#Cc1cccc(NC(=O)N2CC[C@@]3(CCCN(S(=O)(=O)c4ccccc4)C3)C2)c1	i	.
CCCCOC(=O)Cn1c(=N)n(CCC)c2ccccc21	i	>57
Cc1cccc(NS(=O)(=O)c2cccs2)n1	i	>57
O=C(COC(=O)c1n[nH]c2ccccc12)NC(=O)NCc1ccco1	i	>57
CCc1ccc(OCC(=O)Nc2ccc(-c3nc4ccccc4o3)c(O)c2)cc1	i	.
CCC(c1nnnn1Cc1ccco1)N(Cc1cc2cc(C)cc(C)c2[nH]c1=O)CC1CCCO1 (centres undefined)	i	.
CC(=O)C1=C(C)Nc2ncnn2C1c1ccccc1Cl (centres undefined)	i	>57
COc1ccc2cc(S(=O)(=O)N3CCOCC3)ccc2c1	i	.
COC(=O)[C@@]1(Cc2ccc(F)cc2)[C@H]2c3cc(C(=O)N4CCCC4)n(Cc4ccc(C)o4)c3C[C@H]2CN1C(=O)c1ccccc1	i	.
CCCSc1nc(C)cc(=O)[nH]1	i	>57
COc1cc2c(C(=O)NCc3ccccn3)cn(CC(C)C)c(=O)c2cc1OC	i	.
Cc1cc(OCC(=O)N(C)C)c2c(-c3ccccc3)cc(=O)oc2c1	i	.
CCN(CC)S(=O)(=O)c1cccc(C(=O)OCc2cc(=O)n3nc(C)sc3n2)c1	i	>57
CCN(C(=O)c1cn(C)c(=O)c2cc(OC)c(OC)cc12)c1ccccc1C	i	>57
O=C(CSCc1ccc(Cl)cc1)c1ccco1	i	>57
Cc1onc(-c2ccccc2Cl)c1C(=O)Nc1cc(=O)n(C)c(=O)n1C	i	>57
CNC(=O)n1ccc(C(=O)N2CCCCC2)n1	i	>57
Cc1noc(C)c1C(=O)NC(C)C1CCCO1 (centres undefined)	i	>57
CCOC(=O)C1=C(CSc2nc(-c3ccncc3)ccc2C#N)OC(N)=C(C#N)C1c1cccnc1 (centres undefined)	.	?
O=C(CCCCn1c(=O)[nH]c2ccsc2c1=O)NCC1CCCO1 (centres undefined)	i	>57
CCOC(=O)c1[nH]c2ccc(OC)cc2c1NC(=O)CCN1CCN(Cc2ccccc2)CC1	.	>26
CCOc1ccc(NC(C)c2cc(Cl)ccc2O)cc1 (centres undefined)	i	>57
O=C(c1ccc(=O)[nH]c1)N(Cc1ccco1)C1(C(=O)NC2CCCC2)CCCCC1	i	>57
Nc1cc2c(nc3c4ccccc4c(N)cc3[n+]2-c2cccc3ccccc23)c2ccccc12 (tested in a mixture with another compound)	?	.
COc1cccc(-c2cc(NCc3ccccc3OC)ncn2)c1	i	.
CS(=O)(=O)Nc1cccc(-c2cncnc2Nc2ccc(F)cc2)c1	i	.
COc1ccc(Cn2nnnc2CN(Cc2cc3cccc(C)c3[nH]c2=O)C2CCCC2)cc1	i	>57
O=C(Cn1cnc2c(cnn2-c2ccccc2)c1=O)NC1CCCC1	i	.
COc1ccc(C2CC(c3ccco3)n3ncnc3N2)cc1 (centres undefined)	i	.
Cc1cc(NC(=O)c2cnccn2)no1	i	.
O=C(O)C(F)(F)C(F)(F)C(F)(F)C(F)(F)C(=O)O	i	.

Additional structures:
compound	YjeE inh	PK Bst
COc1ccccc1CN1CCCC2(CCN(C(=O)c3ccco3)CC2)C1	i	.
COCCCNC(=O)c1cc2c(s1)CS(=O)(=O)C2	i	>57
COc1ccc(C)cc1NC(=O)c1cc2c(C)nc3ccccc3c2o1	i	>57
CC1(C)CC(=O)c2c(noc2-c2ccccc2)C1	i	>57
O=c1[nH]cnc2c1ncn2[C@H]1CC[C@@H](CO)O1	i	.
Cc1ccc(-n2nnnc2SCC(N)=O)c(C)c1	i	?
COc1cccc(C2C(C(=O)c3cc4ccccc4o3)=C(O)C(=O)N2CCN(C)C)c1OC (centres undefined)	.	>26
CC(=O)c1cccc(N2C(=NC(=O)C(C)C)SC3CS(=O)(=O)CC32)c1 (centres undefined)	i	>57
CCOC(=O)N1CCN(C(=O)c2cccc(OC)c2OC)CC1	i	>57
CC1(C)Oc2ccc(C(=O)N3CCCCC3)cc2N(CC(=O)NCc2ccccc2)C1=O	i	>57
COc1ccc(OC)c(C(=O)c2ccc(C(=O)O)cc2)c1	i	.
CCSc1nnc(NC(=O)CSc2nccn2-c2cccc(C)c2C)s1	i	>57
COC(=O)c1sc(NC(=O)C2CCCCC2C(=O)O)c(C(=O)OC)c1C (centres undefined)	i	.
CCSc1nc2c(cnn2-c2ccc(C)cc2)c(=O)[nH]1	i	.
O=C(CCNS(=O)(=O)c1ccc2c(c1)CCC(=O)N2)Nc1ccc2c(c1)OCCO2	i	>57
CCn1c(SCC(=O)Nc2cccc(C)c2)nc2c(c1=O)SC(C)C2 (centres undefined)	i	.
O=C(CCN1C(=O)C2C3C=CC(C3)C2C1=O)Nc1c(F)cc(F)cc1Br (centres undefined)	i	>57
CC(OC(=O)c1cccs1)C(=O)NCc1ccc2c(c1)OCO2 (centres undefined)	i	>57
COCC(=O)Nc1nnc(Cc2ccc(OC)c(OC)c2)s1	i	>57
COc1ccc(NC(=O)CN2C(=O)CC(C)(C)S(=O)(=O)c3ccccc32)cc1	i	.
C=CCn1c(C(C)NC(=O)CC)nc2ccccc21 (centres undefined)	i	>57
NNS(=O)(=O)c1cc(C(=O)O)cc(C(=O)O)c1	i	.
CCOC(=O)c1c(C)[nH]c(C(=O)CN2CC(C)OC(C)C2)c1C (centres undefined)	i	>57
N#Cc1c(SCC(=O)Nc2nccs2)nc2c(c1-c1ccco1)CCCC2	i	>57
CCCCN1C(=O)c2ccc(C(=O)Nc3cccnc3)cc2C1=O	i	>57
CCn1c(NC(=O)c2cccs2)nc2ccccc21	i	.
COc1cc(NC(=O)c2cc3sccc3n2C)cc(OC)c1	?	4*
CCC(C)[C@H](N)c1nnc(SCc2cccc(F)c2)o1 (some centres undefined)	i	>57
COc1ccccc1CNC(=O)CSc1nc2nc(C)cc(C)n2n1	i	>57
CCn1nnnc1SCCSc1nnnn1CC	i	>57
CC(OC(=O)c1cccs1)C(=O)NCc1cccs1 (centres undefined)	i	>57
CC[C@@H]1OC(=O)[C@H](C)[C@H](O[C@@H]2C[C@](C)(OC)[C@H](O)[C@H](C)O2)[C@H](C)[C@H](O[C@@H]2O[C@@H](C)C[C@@H](N(C)C)[C@@H]2O)[C@](C)(O)C[C@H](C)[C@@H]2N[C@H](COCCOC)O[C@H]([C@@H]2C)[C@]1(C)O	i	.
O=C1CSC2(CCN(CCCN3c4ccccc4Sc4ccc(Cl)cc43)CC2)N1	i	.
CC(C)C(c1nnnn1Cc1ccccc1)N1CCC(C(N)=O)CC1 (centres undefined)	i	>57
CN(C)CCSc1nc(N)c2c3c(sc2n1)COC(C)(C)C3	i	>57
Cc1cc(Nc2ccccc2N2CCOCC2)n2ncnc2n1	i	>57
Cc1ccc2c(CC(=O)OC(C)C(=O)NCc3ccc4c(c3)OCO4)coc2c1 (centres undefined)	i	>57
Cc1cc(C(C)(C)C)oc1C(=O)N1CCN(C(=O)c2oc(C(C)(C)C)cc2C)CC1	i	>57
CN1CCN(c2nc3c(c(=O)[nH]c(=O)n3C)n2CCCSc2ncccn2)CC1	i	>57
